# GLA inh pH 4.5: blocks human alpha-galactosidase A at pH 4.5; P06280; AID 1467; 230,000 tested, under 10 active; purified enzyme, 4-MU-alpha-Gal fluorescence, pH 4.5; activity change, negative = inhibition, % at 105 µM; inconclusive = small, poorly fitted or top-dose-only inhibition, or a rising curve; inactive = flat fitted curve, though single readings scatter; no compound was filed as active;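 further: 0% = full activity with enzyme and -100% = basal without enzyme; dose as in the result columns while the protocol names 77 µM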
# Target sequence (P06280 whole entry, looked up): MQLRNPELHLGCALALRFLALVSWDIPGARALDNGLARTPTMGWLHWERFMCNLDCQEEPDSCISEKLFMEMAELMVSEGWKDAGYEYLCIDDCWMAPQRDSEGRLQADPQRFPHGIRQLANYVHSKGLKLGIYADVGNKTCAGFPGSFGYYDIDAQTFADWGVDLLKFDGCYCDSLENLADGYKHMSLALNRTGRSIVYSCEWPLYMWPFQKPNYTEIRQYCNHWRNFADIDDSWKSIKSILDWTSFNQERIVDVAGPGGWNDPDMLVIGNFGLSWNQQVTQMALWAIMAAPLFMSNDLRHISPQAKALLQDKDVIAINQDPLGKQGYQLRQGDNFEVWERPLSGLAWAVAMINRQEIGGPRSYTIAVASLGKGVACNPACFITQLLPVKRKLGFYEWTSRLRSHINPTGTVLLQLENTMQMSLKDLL
# miR-21 reporter: raises the signal of a miR-21 reporter; HeLa miR-21 FLuc reporter, luciferase, 48 h; Potency, µM (highest dose often 38.3 µM), for inactives: top-dose reporter change, positive = more light; 340,000 tested, under 10 active; AID 2288; active = well fitted rising curve with a large enough effect; inconclusive = small, poorly fitted or top-dose-only effect; inactive = no such curve, though single readings can be large or run the other way;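 further: % of control where 0% means no effect; miR-21 action dims this reporter so a rising signal means less miR-21 action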
#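 HeLa cells endogenously expressing miR-21, stably carrying CMV-driven firefly luciferase with a downstream miR-21 binding site, 2000 cells/well. Titrations up to approximately 40 uM, 48 hours; luciferase luminescence read.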
# Rango release inh: inhibitors of RanGTP-induced Rango-importin beta complex dissociation | O95149+P62826 | Potency, µM (series often up to 46.1 µM), for the others: top-dose activity change, negative = inhibition | Biochemical FRET Rango-importin beta, RanGTP-induced dissociation | actives 0.071% (n = 340,000); active means falling FRET ratio curve, often poorly fitted, with flat reads before Ran was added; inconclusive means other falling curves, or compound fluorescence or quenching; inactive means flat or rising ratio curve;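 further: potency means the concentration at half of the fitted maximal effect; % of control where 0% means no effect; nearly all actives have a fitted effect of over 45% in size; -100% = wells without RanGTP and RCC1; the record marks most hits as doubtful in a second field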
#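 Two FRET readings bracket the reaction: one 5 min after compound meets Rango–importin beta, another 45 min after RanGTP-RCC1 (0.6 uM Ran, 0.2 uM RCC1, 2 mM GTP) is added. Only the second defines inhibition.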
# Rango-impB inh: Rango-importin beta binding inhibition. Q14974. Rango CFP/YFP FRET sensor + importin beta, 45 min. Potency, µM (titrated, usually from 92.2 µM), without a hit: at the highest dose inhibition of complex formation. actives 0.031% (n = 340,000). AID 540263; active = rising FRET ratio curve, often small or poorly fitted; inconclusive = mostly compound fluorescence or quenching in the first reads; inactive = flat curves in all reads;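 further: potency means the concentration at half of the fitted maximal effect; 0% = DMSO wells and 100% = buffer wells lacking importin beta; nearly all actives have a fitted effect of over 15% in size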
#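 FRET biosensor (snurportin 1 IBB flanked by EYFP and cerulean), 50 nM, with compound 5 min, then 0.125 microM importin beta in PBS, 1 mM DTT, 0.02% Tween-20, 0.1% BSA. CFP/YFP ratio read after 45 min at room temperature; pre-read flags interference.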
# Numbers without * were called inactive; ? = inconclusive; . = not tested or not shown; & = joins results of further samples. This is a subset. The share of hits here may be higher or lower than overall.
SMILES	Rango-impB inh	GLA inh pH 4.5	miR-21 reporter	Rango release inh
O=C(O)C1C2CCC(O2)C1C(=O)Nc1cccc(Br)c1 (stereo not drawn)	-3.8%	.	-4%	7%
COc1ccc(CCn2c(O)c(C=NCc3ccc4c(c3)OCO4)c(=O)[nH]c2=O)cc1OC	-2.6%	2	-9%	-15%
COc1ccc(C[C@@H]2c3cc(O)c(OC)cc3CCN2C)cc1O	-3.3%	4	-12%	-4%
CCc1cccc(C)c1NC(=S)N1CC2CC(C1)c1cccc(=O)n1C2 (stereo not drawn)	-0.7%	6	2%	1%
Cc1ccc(S(=O)(=O)Nc2cc(C(=O)N3CCC4(CC3)OCCO4)ccc2N2CCCCC2)cc1	-0.3%	1	-7%	50%
Cc1ccc(C)c(OCC(=O)N2CCN(Cc3ccc4c(c3)OCO4)CC2)c1	-5.0%	-2	1%	-15%
COc1ccc(CCn2c(O)c(C=Nc3cccc(F)c3)c(=O)[nH]c2=O)cc1OC	-3.5%	0	2%	2%
CC(=O)NNC(=O)CN1C(=O)CN=C(c2ccccc2)c2cc(Br)ccc21	0.5%	0	2%	0%

SMILES	Rango-impB inh	GLA inh pH 4.5	miR-21 reporter	Rango release inh
COC(=O)C1=C(c2cc3ccccc3o2)C[C@@H]2CC[C@H]1N2C(=O)NCCO	?	.	.	?
C=CCN1C(=O)/C(=C/c2cccs2)C(=O)NC1=S	?	5	?	-13%
Cc1cccn2c(=O)c3c(nc12)N1CCC(Cc2ccccc2)CC1C1(C3)C(=O)N(C)C(=O)N(C)C1=O (stereo not drawn)	-1.9%	-15	0%	-6%
COc1cccc(-n2c(CN3CCOCC3)nc3ccc([N+](=O)[O-])cc3c2=O)c1	-1.3%	.	-1%	-5%
Clc1ccc(C[n+]2c(-c3ccccc3)cc(-c3ccccc3)cc2-c2ccccc2)cc1	6.0%	.	.	-17%
CCN(CC)CCN=C(C)c1c(O)n(-c2ccccc2OC)c(=O)[nH]c1=O	0.3%	-2	-8%	1%
CC1=C(C(=O)O)N2C(=O)C(NC(=O)Cc3ccccc3)C2SC1 (stereo not drawn)	-0.3%	-9	-4%	-21%
c1ccc(C2=NP(N3CCOCC3)(N3CCOCC3)=NC(N3CCOCC3)=N2)cc1	.	9	-1%	.

SMILES	Rango-impB inh	GLA inh pH 4.5	miR-21 reporter	Rango release inh
CCOC(=O)C1=C(C)c2ccccc2OC1(C(=O)OCC)c1ccccc1 (stereo not drawn)	2.0%	-16	.	-9%
CC(=NCCN1CCCCC1)c1c(O)n(-c2ccc(Cl)cc2)c(=O)[nH]c1=O	-1.7%	8	-3%	-1%
O=C(C(=O)N1CCOCC1)c1cn(Cc2c(F)cccc2Cl)c2ccccc12	-2.2%	2	2%	-11%
CN1CCN(c2nc(N(C)C)oc(=O)c2C#N)CC1	0.4%	-3	2%	22%
ON1C2CCCCC2N(O)C1c1ccccc1F (stereo not drawn)	-0.6%	6	-5%	1%
Cc1cc(OCC(=O)NCc2ccncc2)c2c3c(c(=O)oc2c1)CCC3	?	.	-5%	2%
CCN1CCC2(CC1)NC(=O)c1ccccc1O2	-0.2%	3	2%	13%
COCCCn1c(N)c(C(=O)Nc2ccccc2)c2nc3ccccc3nc21	?	-3	12%	?

SMILES	Rango-impB inh	GLA inh pH 4.5	miR-21 reporter	Rango release inh
Cc1cc(C(=O)N2CCC3(CC2)OCCO3)cs1	0.5%	2	-1%	-2%
COc1ccc(N=C(C)c2c(O)n(C)c(=O)n(C)c2=O)c(OC)c1	0.1%	-6	-2%	2%
CCN1CCN(Cc2nc3ccc([N+](=O)[O-])cc3c(=O)n2-c2ccccc2F)CC1	3.2%	.	-7%	-10%
c1ccc2c(CN3CCCCC3)c[nH]c2c1	-1.6%	2	1%	12%
COC1=CCC2([N+](=O)[O-])CN(C)CC1([N+](=O)[O-])C2 (stereo not drawn)	-2.1%	5	0%	-9%
Cc1ccccc1-c1nc(CS(=O)CC(=O)N2CCC3(CC2)OCCO3)c(C)o1 (stereo not drawn)	0.2%	-3	-6%	-1%
COC(=O)N(c1ccccc1)P(=O)(Oc1ccccc1)Oc1ccccc1	-2.7%	.	3%	-10%
O=C(/C=C/c1ccccc1)NC(=S)N1C[C@H]2C[C@H](C1)c1cccc(=O)n1C2	4.7%	.	-4%	-4%

SMILES	Rango-impB inh	GLA inh pH 4.5	miR-21 reporter	Rango release inh
ClC1C(Cl)C(Cl)C(Cl)C(Cl)C1Cl (stereo not drawn)	-6.9%&0.2%	-6&-8	.	-16%&-5%
Cc1ccc([N+](=O)[O-])cc1	2.8%	.	.	-8%
COc1cc2c(cc1OC)CN(c1ccc([N+](=O)[O-])c(C(F)(F)F)c1)CC2	-4.6%	-14	?	-12%
COc1ccc2nc3c(C)n(C)ccc-3c2c1	-1.6%	.	.	-7%
Cc1ccc(NC(=O)c2ncn(CCCNCCN3CCOCC3)n2)cc1C	1.0%	.	.	17%
c1ccc(CN2CCN(Cc3ccc4ccccc4c3)CC2)cc1	-1.1%	.	-5%	0%
CCC(CO)NC(=O)C1C=C2c3cccc4[nH]cc(c34)CC2N(C)C1 (stereo not drawn)	?	-1&2	3%	-4%
O=C(N/N=C/C1C(=O)NC(=S)N(c2ccccc2)C1=O)c1cc(Br)c(O)c(Br)c1 (stereo not drawn)	?	-10	1%	?

SMILES	Rango-impB inh	GLA inh pH 4.5	miR-21 reporter	Rango release inh
O=C1NC(=S)N(c2ccccc2)C(=O)/C1=C/c1ccco1	?	.	3%	?
COc1ccccc1NP1(=O)OCC(C)([N+](=O)[O-])CO1 (stereo not drawn)	1.5%	.	.	-9%
COc1ccccc1N1C(=O)NC(=O)C(CCc2ccncc2)(CCc2ccncc2)C1=O	-4.5%	1	-3%	-5%
CCOC(=O)C1CCN(C(C)C(=O)c2c[nH]c3ccccc23)CC1 (stereo not drawn)	1.2%	.	1%	-3%
CCOP(=O)(OCC)C(Cc1ccccc1)NC(C)=O (stereo not drawn)	-1.2%	0	0%	-4%
O=[N+]([O-])c1cccc2c([As](=O)(O)O)cccc12	1.4%	-4	13%	-9%
O=c1[nH]c(=S)n(C2CCCCC2)c(O)c1/C=N/N1CCOCC1	?	-2	11%	?
COc1cc(Cc2ccc(N)c(OC)c2)ccc1N	-3.3%	-4	-6%	18%

# 17 entries from above, sorted by molar mass, largest number first:
SMILES	Rango-impB inh	GLA inh pH 4.5	miR-21 reporter	Rango release inh
O=C(N/N=C/C1C(=O)NC(=S)N(c2ccccc2)C1=O)c1cc(Br)c(O)c(Br)c1 (stereo not drawn)	?	-10	1%	?
Cc1ccccc1-c1nc(CS(=O)CC(=O)N2CCC3(CC2)OCCO3)c(C)o1 (stereo not drawn)	0.2%	-3	-6%	-1%
Cc1ccc(NC(=O)c2ncn(CCCNCCN3CCOCC3)n2)cc1C	1.0%	.	.	17%
COC(=O)N(c1ccccc1)P(=O)(Oc1ccccc1)Oc1ccccc1	-2.7%	.	3%	-10%
COc1cc2c(cc1OC)CN(c1ccc([N+](=O)[O-])c(C(F)(F)F)c1)CC2	-4.6%	-14	?	-12%
O=C(/C=C/c1ccccc1)NC(=S)N1C[C@H]2C[C@H](C1)c1cccc(=O)n1C2	4.7%	.	-4%	-4%
CCC(CO)NC(=O)C1C=C2c3cccc4[nH]cc(c34)CC2N(C)C1 (stereo not drawn)	?	-1&2	3%	-4%
O=c1[nH]c(=S)n(C2CCCCC2)c(O)c1/C=N/N1CCOCC1	?	-2	11%	?
CCOC(=O)C1CCN(C(C)C(=O)c2c[nH]c3ccccc23)CC1 (stereo not drawn)	1.2%	.	1%	-3%
c1ccc(CN2CCN(Cc3ccc4ccccc4c3)CC2)cc1	-1.1%	.	-5%	0%
COc1ccccc1NP1(=O)OCC(C)([N+](=O)[O-])CO1 (stereo not drawn)	1.5%	.	.	-9%
CCOP(=O)(OCC)C(Cc1ccccc1)NC(C)=O (stereo not drawn)	-1.2%	0	0%	-4%
O=C1NC(=S)N(c2ccccc2)C(=O)/C1=C/c1ccco1	?	.	3%	?
ClC1C(Cl)C(Cl)C(Cl)C(Cl)C1Cl (stereo not drawn)	-6.9%&0.2%	-6&-8	.	-16%&-5%
COc1cc(Cc2ccc(N)c(OC)c2)ccc1N	-3.3%	-4	-6%	18%
COc1ccc2nc3c(C)n(C)ccc-3c2c1	-1.6%	.	.	-7%
Cc1ccc([N+](=O)[O-])cc1	2.8%	.	.	-8%

# The list goes on:
SMILES	Rango-impB inh	GLA inh pH 4.5	miR-21 reporter	Rango release inh
COc1ccc(CCNCc2cccn2C)cc1	5.8%	.	-4%	-27%
O=C1CC(=O)N(Cc2ccccc2)C(=O)N1Cc1ccccc1	?	.	.	6%
CCCCn1c(O)c(C(C)=NCc2cc(OC)cc(OC)c2)c(=O)[nH]c1=O	-4.3%	0	4%	-22%
Cc1ccc2c(c1)CC1(CN2C)C(=O)NC(=O)N(c2cccc(C)c2C)C1=O (stereo not drawn)	0.1%	5	-10%	-14%
Clc1cc(I)cc(Cl)c1NC1=NCCN1	-1.3%	-5	.	-14%
Nc1c(C(=O)NCc2ccco2)c2nc3ccccc3nc2n1Cc1ccc(F)cc1	?	19	23%	?
COc1ccc(OC)c(NC(=O)C2C(C(=O)O)C3(Cl)C(Cl)=C(Cl)C2(Cl)C3(Cl)Cl)c1 (stereo not drawn)	4.6%	?	-3%	-17%
O=[N+]([O-])O[C@H]1CO[C@H]2[C@@H]1OC[C@H]2O[N+](=O)[O-]	-8.5%	.	.	9%

SMILES	Rango-impB inh	GLA inh pH 4.5	miR-21 reporter	Rango release inh
CC/C(=N\NC(=O)c1ccccc1)c1c(O)n(C2CCCCC2)c(=O)[nH]c1=O	0.3%	.	-50%	5%
COc1ccc(Cn2c(O)c(/C=N/NC(=O)c3ccccc3O)c(=O)[nH]c2=O)cc1	-3.3%	-3	-1%	0%
O=C(CCC(=O)N1C[C@H]2C[C@@H](C1)c1cccc(=O)n1C2)NCc1ccccc1	2.5%	.	0%	-2%
CN1CCC(c2c[nH]c3ccccc23)C1 (stereo not drawn)	1.1%	2	2%	-20%
CC(C)n1c(O)c(C=NCc2ccccc2)c(=O)[nH]c1=S	0.1%	2	4%	-1%
Cn1nnc(CC[N+](C)(C)C)n1	0.8%	0	0%	-6%
CCOc1ccc(N2C(=O)NC(=O)/C(=C\c3ccc(N4CCCCC4)o3)C2=O)cc1	3.2%	20	-4%	-16%
Nc1ccc(N=Nc2ccccc2)cc1	-0.2%	-3	-29%	3%

SMILES	Rango-impB inh	GLA inh pH 4.5	miR-21 reporter	Rango release inh
COc1ccc(C(=O)CN2CCOCC2)cc1F	-1.3%	6	3%	-5%
Cn1c(O)c(C=NCCN2CCOCC2)c(=O)[nH]c1=S	1.2%	2	-1%	-12%
ClCCOCOCCCl	-0.4%	.	.	-1%
NC(=S)c1cn(C2OC(CO)C(O)C2O)c2ncnc(N)c12 (stereo not drawn)	3.2%	-6	?	0%
CCOC(=O)C1=C(N)OC2=C(C(=O)CCC2)C12C(=O)N(C)c1ccccc12 (stereo not drawn)	0.5%	2	1%	-5%
ClCC(Br)CBr (stereo not drawn)	0.7%	.	.	-6%
COC(=O)C1=CO[C@H](C)[C@H]2CN3CC[C@@]4(C(=O)Nc5ccccc54)[C@@H]3C[C@H]12	2.2%	.	.	-2%
Cc1ccc(-c2ccc(=O)n(CCC(=O)N3CCC4(CC3)OCCO4)n2)cc1	-3.3%	3	-41%	-2%

SMILES	Rango-impB inh	GLA inh pH 4.5	miR-21 reporter	Rango release inh
CCOc1cc2c(cc1OCC)-n1cccc1C(c1ccccc1O)NC2 (stereo not drawn)	-1.2%	.	-5%	16%
Cc1cccnc1-n1c(-c2ccco2)nc2ccccc2c1=O	-0.2%	-10	0%	0%
CC1CCN2c3nc4ccccn4c(=O)c3CC3(C(=O)N(C)C(=O)N(C)C3=O)C2C1 (stereo not drawn)	-5.9%	-1	-9%	-7%
CC12CCC(=O)C=C1CC(N1CC1)C1C2CCC2(C)C(O)CCC12 (stereo not drawn)	?	.	.	-6%
COc1cc(N2C(=O)CC(=O)NC2=O)cc(OC)c1OC	-1.0%	.	3%	1%
Clc1ccccc1N1CCN(Cc2ccc3c(c2)OCO3)CC1	2.2%	.	4%	1%
NNC(N)=O	-2.9%	-3	.	-13%
